Mtb betalactam – beta-lactam sensitization of Mtb H37Rv; M. tuberculosis H37Rv growth with meropenem, percent inhibition; hits of this screen are not shown here; inhibition, % at 25 µM; 330,000 compounds, 0.27% hits; AID 434955;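 active = about 74% or more and at least 40 points above the plate without the antibiotic, then above 30% in a dose series; inconclusive = first-round hits that could not be retested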;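 note: growth measured after seven days incubation then overnight dye step; 0% = bacteria only wells and 100% = bacteria with antibiotic; twin plates without the antibiotic show which effects depend on it; some results filed as inactive read as strong as hits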
* = called active by the depositor; u = inconclusive.

SMILES | Mtb betalactam
CCOC(=O)C1=CCC2c3c(c4ccccc4n3C)C(=O)C1N2C(=O)OC(C)(C)C (centres undefined) | 6.8
CC(=O)N1CCN(S(=O)(=O)c2cccc(C(=O)OCc3cccc(F)c3)c2)CC1 | -2.7
CCC1(c2ccccc2)NC(=O)N(CC(=O)Nc2cccnc2Cl)C1=O (centres undefined) | -11.7
Cc1ccc(NC(=O)CCN2CCC(C(N)=O)CC2)cc1 | 1.2
CCCCNC(=O)[C@]1(C)CCC[C@@]2(C)C3CC[C@@]4(C)C[C@]3(CCC21)CC4=O (some centres undefined) | 6.6
O=C(COc1cccc(Br)c1)Nc1ccc(N2CCOCC2)cc1N1CCOCC1 | -4.4
COC(=O)[C@]1(C)N[C@H](CN(C)C(=O)Nc2ccc(Cl)cc2)[C@@H]2C(=O)N(Cc3ccccc3)C(=O)[C@@H]21 | -2.9
COc1ccc(S(=O)(=O)N2CCN(C)CC2c2ccccc2)cc1 (centres undefined) | -7.6
CCN(CC(=O)Nc1ccccc1C(F)(F)F)C(=O)Cc1ccc2c(c1)CCC2 | 2.9
COc1ccc([C@H]2CC(=O)C=C(c3cccc4c3sc3ccccc34)C2)cc1OC | 54.0
CCCCN1CC(=O)N2[C@H]3c4ccccc4OC[C@@H]3[C@H](C(=O)OCC)[C@]2(C)C1=O | 2.0
Cc1ccc(NC(=O)COC(=O)C2CCN(c3ccc(C(F)(F)F)cn3)CC2)cc1 | -4.5
Cc1cc(C)c(C(=O)COC(=O)CN2C(=O)NC3(CCCC3)C2=O)cc1C | 2.5
CC(C)[C@H](NC(=O)c1ccco1)C(=O)N(C)Cc1ccc(C(F)(F)F)cc1 | -1.7
COc1ccc(C2(c3ccc(OC)cc3)NC(=O)N(CC(=O)NC3CCS(=O)(=O)C3)C2=O)cc1 (centres undefined) | -9.7
CN(Cc1nc2ccccc2c(=O)[nH]1)C(=O)c1cccc(S(=O)(=O)N2CCCC2)c1 | 0.1
COc1ccc(CNC(=O)COC(=O)c2cccn2C)cc1 | -3.9
CCCc1cc(=O)[nH]c(SCC(=O)N2c3ccccc3CC2C)n1 (centres undefined) | -5.1
Cc1noc(C)c1NC(=O)N(C)C[C@H]1Oc2c(NC(=O)C3CC3)cccc2C(=O)N([C@H](C)CO)C[C@@H]1C | 3.7
CCN(C[C@H]1N[C@@](Cc2ccccc2)(C(=O)OC)[C@H]2C(=O)N(C)C(=O)[C@@H]12)C(=O)c1ccc(F)cc1 | 2.8
CN(CC(=O)Nc1cccc(F)c1)C(=O)c1sc2ccccc2c1Cl | -4.4
CCC1Nc2ncnc(N3CCN(c4ccccc4)CC3)c2N(Cc2ccccc2)C1=O (centres undefined) | 3.0
CCc1cc(C(=O)Nc2nc(-c3ccccn3)cs2)sc1C | 94.0
O=S(=O)(c1c(Cl)cc(Br)cc1Cl)N1CCN(C(=S)NC2CC2)CC1 | -1.4
CN1CCN(S(=O)(=O)c2ccc(N(C)Cc3ccc(C(F)(F)F)cc3)c([N+](=O)[O-])c2)CC1 | 8.3
CC(C(=O)O)C(=O)O | -6.7
CN(c1ccc(C(=O)COC(=O)C2CC2)cc1)S(C)(=O)=O | 31.4
COc1ccccc1NC(=O)CSc1nnc2ccccn12 | -3.9
O=C(CN1CCN(CN2C(=O)NC3(CCCCCC3)C2=O)CC1)Nc1cccc(F)c1 | 0.1
CC(C)NC(=O)Nc1cccc2c1O[C@H](CN(C)S(=O)(=O)c1ccccc1)[C@@H](C)CN([C@H](C)CO)C2=O | -1.1
O=C(COC(=O)CCSc1ccc(F)cc1)NCc1ccc(F)cc1 | 0.9
O=C(C[C@@H]1C/C=C\CC[C@H](Cc2ccc(F)cc2)C(=O)OC[C@@H]2CCCN2C1=O)N[C@H](CO)Cc1ccccc1 | 5.3
CC1Cc2ccccc2N1C(=O)CSc1nncs1 (centres undefined) | -6.7
CCOC(=O)c1c(C)[nH]c(C)c1C(=O)COC(=O)c1cccnc1SC | 4.7
COc1ccc(S(=O)(=O)N2CCOCC2)cc1NC(=O)CN1C(=O)NC2(CCCC2)C1=O | -1.9
O=C(NC(=S)NCc1ccccc1)c1ccc(Br)cc1 | 0.1
CCCCn1c(N)c(N(Cc2ccccc2OC)C(=O)COc2ccccc2C#N)c(=O)[nH]c1=O | -0.5
CCN(C[C@H]1N[C@@](CC)(C(=O)OC)[C@H]2C(=O)N(C)C(=O)[C@@H]12)C(=O)Nc1ccccc1 | -7.3
COc1cc(S(=O)(=O)NC2CC(C)(C)NC(C)(C)C2)c(OC)cc1Cl | -5.4
Oc1cc(O)c2c(c1)OC(c1ccc(O)c(O)c1)C(O)C2 (centres undefined) | 4.5
COCCn1c(C)cc(C(=O)CN2c3cccc4cccc(c34)S2(=O)=O)c1C | -4.1
CCC(C)N(C(=O)COc1ccccc1C(=O)NCc1ccccc1)C1CCS(=O)(=O)C1 (centres undefined) | -10.3
CCCc1nnc(NC(=O)COc2ccc3c(c2)OCO3)s1 | 20.3
NS(=O)(=O)c1cccc(NC(=O)CN2C(=O)C(=O)N(Cc3ccccc3)C2=O)c1 | -8.8
CC(C)(C)OC(=O)C[C@@H]1C/C=C\C[C@H](CC(=O)NCCO)C(=O)NC[C@H](c2ccccc2)OC1=O | -1.0

Reformatted: six of the compounds above.
| smiles | Mtb betalactam |
| --- | --- |
| CC1Cc2ccccc2N1C(=O)CSc1nncs1 (centres undefined) | -6.7 |
| CCOC(=O)c1c(C)[nH]c(C)c1C(=O)COC(=O)c1cccnc1SC | 4.7 |
| COc1ccc(S(=O)(=O)N2CCOCC2)cc1NC(=O)CN1C(=O)NC2(CCCC2)C1=O | -1.9 |
| O=C(NC(=S)NCc1ccccc1)c1ccc(Br)cc1 | 0.1 |
| CCCCn1c(N)c(N(Cc2ccccc2OC)C(=O)COc2ccccc2C#N)c(=O)[nH]c1=O | -0.5 |
| CCN(C[C@H]1N[C@@](CC)(C(=O)OC)[C@H]2C(=O)N(C)C(=O)[C@@H]12)C(=O)Nc1ccccc1 | -7.3 |

Compounds from the list above with a thiophene ring, fused or not, in the order listed:
SMILES | Mtb betalactam
COc1ccc([C@H]2CC(=O)C=C(c3cccc4c3sc3ccccc34)C2)cc1OC | 54.0
CN(CC(=O)Nc1cccc(F)c1)C(=O)c1sc2ccccc2c1Cl | -4.4
CCc1cc(C(=O)Nc2nc(-c3ccccn3)cs2)sc1C | 94.0

New compounds follow:
SMILES | Mtb betalactam
COc1ccc(OC)c(-c2nnc3n2N=C(c2ccc(OC(F)F)c(OCC4CC4)c2)CS3)c1 | 11.7
COC(=O)C1=C(c2cccc(OCc3ccccc3)c2)C[C@@H]2CC[C@H]1N2C(=O)NCc1cccc(F)c1 | -13.2
Cc1cnc(C(=O)N2CCN(S(=O)(=O)c3cccc(Br)c3)CC2)cn1 | 0.3
COc1cc2c(cc1OC)CN(CC(=O)Nc1ccccc1C(=O)NC1CC1)CC2 | 7.8
COc1cccc(-c2c(-c3cc(OC)cc(OC)c3)n(C)c3ccc(-c4ccc5cc[nH]c5c4)cc23)c1 | -5.8
Cc1sc2ncnc(N3CCC(C(=O)Nc4ccc(S(N)(=O)=O)cc4)CC3)c2c1C | -1.3
CC(=O)Nc1cccc(-c2cnc(N)c(C(=O)c3cccnc3)n2)c1 | -2.8
Cc1ccc(C2(C)NC(=O)N(CC(=O)NNC(=O)c3ccccc3)C2=O)cc1 (centres undefined) | -6.8
CCCn1c(N)c(C(=O)COC(=O)CNC(=O)c2ccccc2OCC)c(=O)[nH]c1=O | 3.4
COc1ccc(NC(=O)CNCc2ccc(Cl)cc2)cc1S(=O)(=O)N1CCOCC1 | 2.8
O=C(O)c1ccccc1NS(=O)(=O)c1cccc(NS(=O)(=O)c2cc(Br)ccc2Br)c1 | 6.7
COc1ccc(Cc2nnc(NC(=O)c3cc(OC)c(OC)c(OC)c3)s2)cc1 | 10.9
Cc1ccc(C(=O)OCC(=O)NC(C)C2CC3CCC2C3)cc1N (centres undefined) | -4.6
O=C(CN(Cc1ccco1)C(=O)c1ccccc1F)Nc1ccccc1C(F)(F)F | 1.0
CN1CCCN(C(=O)CNC(=O)c2ccccc2F)CC1 | -5.9
C[C@H](NC(=O)c1ccco1)C(=O)NC1CCCCCC1 | 2.1
COc1cc(C2c3c(c(C)c(C)oc3=O)Oc3c(C)c(C)oc(=O)c32)ccc1OS(=O)(=O)c1ccc(C)cc1 | 5.8
COc1ccc(-c2sc3cc4c(cc3c2C#CC2(O)CCCCC2)OCO4)cc1 | u
Cc1c(Cl)cnc(NC(=O)COC(=O)C2CCCC2)c1Cl | -2.9
O=C(NCC1CCCO1)c1cn(Cc2ccccc2)nc1-c1ccc(Cl)cc1 (centres undefined) | 3.8
C=CCC[C@H](Cc1ccc(F)cc1)C(=O)OC[C@@H](Cc1c[nH]c2ccccc12)NC(=O)[C@@H](CC=C)CC(=O)N[C@H](CO)Cc1ccccc1 | 1.7
CC(OC(=O)C1CC2CCCC(C1)C2=O)C(=O)Nc1cccc([N+](=O)[O-])c1 (centres undefined) | -4.9
O=C(CCc1ccccc1)NNC(=O)Nc1ccc(Cl)cc1 | 0.9
COC(=O)C1=C(c2ccc(F)cc2OCc2ccccc2)C[C@@H]2CC[C@H]1N2C(=O)NCc1cc(C)oc1C(F)(F)F | -6.3
CCN(C[C@H]1N[C@@](CC)(C(=O)OC)[C@H]2C(=O)N(Cc3ccccc3)C(=O)[C@@H]12)S(=O)(=O)c1ccc(C)cc1 | -3.9
CC(Cc1ccccc1)NC(=O)C(c1ccc(N)cc1)c1ccc(N)cc1 (centres undefined) | -7.7
Cc1noc(C)c1CSCC(=O)Nc1cc(C(F)(F)F)ccc1N1CCOCC1 | -2.0
C[C@@]12C(=O)N(Cc3ccccc3)CC(=O)N1[C@H]1c3cc(Cl)ccc3OC[C@@H]1[C@@H]2c1ccccc1 | 46.9
Cc1ccc(NC(=O)COC(=O)[C@@H]2CC(O)CN2S(=O)(=O)c2ccc3c(c2)OCCO3)cc1 (some centres undefined) | -3.9
CSCCC(NC(=O)c1ccco1)C(=O)NCC1CCCCC1 (centres undefined) | 3.6

Rewritten with each value named: part of the list above.
> CCC1(c2ccccc2)NC(=O)N(CC(=O)Nc2cccnc2Cl)C1=O (centres undefined)
  Mtb betalactam: -11.7
> Cc1ccc(NC(=O)CCN2CCC(C(N)=O)CC2)cc1
  Mtb betalactam: 1.2
> CCCCNC(=O)[C@]1(C)CCC[C@@]2(C)C3CC[C@@]4(C)C[C@]3(CCC21)CC4=O (some centres undefined)
  Mtb betalactam: 6.6
> O=C(COc1cccc(Br)c1)Nc1ccc(N2CCOCC2)cc1N1CCOCC1
  Mtb betalactam: -4.4

(listing goes on)
SMILES | Mtb betalactam
Cc1csc(NC(=O)CSc2nc3nc(C)cc(C)n3n2)n1 | 1.9
CCCC1C(=O)N2C(N(C)C)=Nc3ccc(C)cc3N2C1=O (centres undefined) | 1.1
COC(=O)C1=C(c2cccc(OCc3ccccc3)c2)C[C@@H]2CC[C@H]1N2C(=O)NCCc1ccc(F)cc1 | -5.5
CCCCC/C=C/C1=CC(=O)C[C@H](c2ccc(OC)cc2)C1 | -9.7
O=C1Nc2ccccc2C1=Nc1ccc(Br)cc1 | 1.1
Cc1cccc(C)c1NC(=O)C1CCCN1S(=O)(=O)c1ccccc1 (centres undefined) | 2.9
CNC(=O)C1CC(=O)N(c2ccc(OCC(=O)Nc3ccc(OC)cc3)cc2)C1 (centres undefined) | -8.5
COc1ccccc1C(=O)COC(=O)c1ccc(Cl)nc1 | 77.8
Cc1nnc(NC(=O)C2CCN(S(=O)(=O)c3ccc(F)c(F)c3)CC2)o1 | -1.5
COc1ccc(S(N)(=O)=O)cc1C(=O)NNC(=O)C1COc2ccccc2O1 (centres undefined) | -2.8
COc1ccccc1NC(=O)[C@@H]1CCCN1S(=O)(=O)c1ccc(Cl)cc1 | 5.8
C=CC[C@@H](CC(=O)N(CCO)Cc1ccccc1)C(=O)N[C@@H](C)COC(=O)[C@@H](CC=C)Cc1ccc(F)cc1 | -0.6
CCN(C(=O)COC(=O)c1sccc1C)c1c(N)n(Cc2ccccc2)c(=O)[nH]c1=O | 3.8
Clc1ccc(CN2CC[C@H]3C=CCc4cccc(c43)C2)cc1 | 15.7
COc1ccc(S(=O)(=O)N(C)C[C@H]2Oc3c(NC(=O)c4ccncc4)cccc3C(=O)N([C@H](C)CO)C[C@@H]2C)cc1 | 2.2

Next section, overlapping the part above by 2 compounds.
SMILES | Mtb betalactam
Clc1ccc(CN2CC[C@H]3C=CCc4cccc(c43)C2)cc1 | 15.7
COc1ccc(S(=O)(=O)N(C)C[C@H]2Oc3c(NC(=O)c4ccncc4)cccc3C(=O)N([C@H](C)CO)C[C@@H]2C)cc1 | 2.2
C=CC[C@@H](CC(=O)OC(C)(C)C)C(=O)OC[C@H]1CCCN1C(=O)[C@@H](CC=C)CC(=O)N[C@H](CO)Cc1ccccc1 | 12.4
CC(=O)NCCSc1ccc(S(=O)(=O)N2CCCC2)cn1 | -2.7
Cc1ccoc1C(=O)Nc1ccc2ccccc2c1 | 3.1
O=C(CCNC(=O)c1ccc(Cl)cc1)NC1CCCCCC1 | -11.6
O=C(Nc1ccc(N2CCCCC2)cc1)c1ccc([N+](=O)[O-])o1 | 100.2
CCCCOC(=O)c1ccc(NC(=O)CN2C(=O)NC3(CCCCCC3)C2=O)cc1 | 97.2
COc1ccccc1N1CN(S(=O)(=O)c2ccc(C)cc2)c2nc3ccccc3nc21 | 3.1
Cn1cccc1-c1cc(C(=O)N/N=C/c2ccc(Cl)cc2)[nH]n1 | 2.1
CCC(=O)N(C(=O)CC)N1CCN(c2ccncc2S(=O)(=O)N2CCCCC2)CC1 | 2.8
NC(=O)c1cc([N+](=O)[O-])ccc1NCc1ccc(F)cc1 | -9.0
CSc1ncccc1C(=O)OCC(=O)Nc1cccc(S(=O)(=O)N2CCOCC2)c1 | 5.0
COc1ccc(/C=C/C(=O)OCC(=O)NCCc2ccccc2)c(OC)c1 | 7.3
COc1cc(F)c(C2=CC(=O)C[C@H](c3ccc(F)cc3)C2)cc1F | -0.1
COc1ccc(NC(=O)Nc2ccc3c(c2)C(=O)N([C@H](C)CO)C[C@H](C)[C@@H](CN(C)S(=O)(=O)c2ccc(OC)cc2)O3)cc1 | 3.0

An excerpt, so the mix of outcomes need not match the whole.
